Bioassay records deposited in PubChem BioAssay by ICCB-Longwood Screening Facility, Harvard Medical School.
HCMV UL50-53 inh – cytomegalovirus nuclear egress complex inhibition. inhibition, % (test concentration not listed). 0.15% of 190,000 active. HTRF UL50-UL53 interaction, normalized percent inhibition;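 active = both replicates at 50% or more, plus weaker picks with an unusually low signal ratio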;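 note: stock transfer was 100 nL into about 20 µL; 0% = negative control wells and 100% = wells with untagged competitor protein; inactives centre near -12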
Active calls of the source: *; & = joins results of further samples.

mol	HCMV UL50-53 inh
O=C(OC1CCCCC1)c1cc2ccccc2oc1=O	2
N#CCSc1nnc(-c2ccccc2)c2ccccc12	-26
CCOc1ccc2cc(S(=O)(=O)N3CCCCCC3)ccc2c1	-18
CC(=O)[C@@]1(O)CCC2C3CC(C)C4=CC(=O)CC[C@]4(C)C3CC[C@@]21C (some centres not stated)	-60
O=S(=O)(c1cccs1)N1CCCCC1	-1
O=S(=O)(O)c1cccc2cccc(Nc3ccccc3)c12	-38
CC(C)(C)n1nc(Cc2cccc3ccccc23)c2c(N)ncnc21	-18&-8&-8
N#CC1=C(SCC(=O)NC2CCCCC2)NC(=O)CC1c1ccc(F)cc1 (configuration not stated)	-16
Cc1cc(-c2ccccc2C(F)(F)F)nc(N)n1	-16
O=S(=O)(/C=C/c1ccccc1)NCc1ccccc1	-23
Cc1[nH]c(/C=C2\C(=O)Nc3ccc(S(=O)(=O)Cc4c(Cl)cccc4Cl)cc32)c(C)c1C(=O)N1CCC[C@@H]1CN1CCCC1	2
Cc1nnc(CN(C)C(=O)c2cc(-c3ccc(C)s3)cc(S(=O)(=O)N3CCOCC3)c2)o1	3
C[C@]12CCC(=O)C=C1[C@@H]1C[C@@H]1C1C2CC[C@@]2(C)C1[C@@H]1C[C@@H]1[C@@]21CCC(=O)O1 (some centres not stated)	-53
CC(C)(CO)NCC(O)Cn1c2ccccc2c2ccccc21 (configuration not stated)	0
Cc1nn(C(=O)c2cccnc2)c(C)c1Sc1ccccc1	-20
CC(Oc1ccc(F)cc1)C(=O)Oc1ccc(Br)cc1 (configuration not stated)	-6
NCCNS(=O)(=O)c1cccc2cnccc12	-28
CSc1nc(-c2ccnc(NC(C)c3ccccc3)c2)c(-c2ccc(F)cc2)[nH]1 (configuration not stated)	0
CCCCn1c(CNC(=O)C(C)(C)C)nc2ccccc21	-7
CC/C=C\C/C=C\C/C=C\C/C=C\C/C=C\C/C=C\CCC(=O)NCCO	-29&-29

Next entries
mol	HCMV UL50-53 inh
CC(C)(C)NC(=O)CCN1C(=O)/C(=C/c2ccccc2)SC1=S	-25
COc1ccc(NC(=O)c2cc3ccccc3oc2=O)cc1	-42
O=C(NO)c1ccccc1C(F)(F)F	-4
CCCNC(=O)[C@H]1O[C@@H]1C(=O)N[C@H](C(=O)N1CCC[C@H]1C(=O)OC)C(C)CC (some centres not stated)	-7
c1ccc(Nc2ncnc3nc[nH]c23)cc1	-11
NC(=O)c1cc(Cl)c(C(N)=O)cc1Cl	-3
CCCn1cc(SCC(=O)NCc2ccco2)c2ccccc21	-13
CSc1nnc(CNC(=O)COc2ccccc2)n1-c1ccc(F)cc1	-17
COc1ccc(-c2cnnn2-c2ccc(N)cc2)cc1	-5
Cc1cccc(C(=O)NCCn2ccc3ccccc32)c1	8
Brc1cc2c(cc1[C@H]1Nc3ccccc3[C@H]3C=CC[C@H]31)OCO2 (racemic)	-3
CC(N)=NCc1cccc(CN)c1	-5&6
NC(=O)Nc1cc(-c2ccccc2)sc1C(N)=O	-31
Cc1onc(-c2ccccc2)c1C(=O)NC1C(=O)N2C1SC(C)(C)C2C(=O)O (configuration not stated)	-28&-26
CC(=O)Nc1nnc(SCC(=O)Nc2ccccc2)s1	3&-20
CCCCC[C@](C)(O)/C=C/[C@H]1C(=O)C[C@H](O)[C@@H]1C/C=C\CCCC(=O)O	-2&-2
COc1ccc(CN2C[C@H](C(=O)Nc3ccc4c(c3)CCC4)C[C@H](C(=O)N3CCCCC3)C2)cc1OC	1
COc1ccc(-c2cc(-n3cccn3)ncn2)c(-n2cccn2)c1	44&44
Nc1nccc(-c2c(-c3ccc(F)cc3)ncn2C2CCNCC2)n1	-18
CC(=O)N1CCN(CCOc2ccc(C3CCN(C4=Nn5c(nnc5C(F)(F)F)CC4)CC3)cc2)CC1	-3

Quoted from the listing:
Value for COc1ccc(-c2cnnn2-c2ccc(N)cc2)cc1 in HCMV UL50-53 inh: -5
Value for CCCCC[C@](C)(O)/C=C/[C@H]1C(=O)C[C@H](O)[C@@H]1C/C=C\CCCC(=O)O in HCMV UL50-53 inh: -2&-2
Value for NC(=O)Nc1cc(-c2ccccc2)sc1C(N)=O in HCMV UL50-53 inh: -31
Value for CSc1nnc(CNC(=O)COc2ccccc2)n1-c1ccc(F)cc1 in HCMV UL50-53 inh: -17

An excerpt of the results above, for reference:
mol	HCMV UL50-53 inh
CC(C)(C)NC(=O)CCN1C(=O)/C(=C/c2ccccc2)SC1=S	-25
COc1ccc(NC(=O)c2cc3ccccc3oc2=O)cc1	-42
O=C(NO)c1ccccc1C(F)(F)F	-4
CCCNC(=O)[C@H]1O[C@@H]1C(=O)N[C@H](C(=O)N1CCC[C@H]1C(=O)OC)C(C)CC (some centres not stated)	-7
c1ccc(Nc2ncnc3nc[nH]c23)cc1	-11
NC(=O)c1cc(Cl)c(C(N)=O)cc1Cl	-3

Other compounds follow.
mol	HCMV UL50-53 inh
O=C(c1cc2ccccc2oc1=O)N1CCSC1c1cccc(Cl)c1 (configuration not stated)	-4
CCC(c1ccc(O)cc1)C(CC)c1ccc(O)cc1 (configuration not stated)	2&-26
CCOc1ccc(C(=O)NC2CC2)cc1	-12
Cc1cc(C=CC#N)cc(C)c1Nc1ccnc(Nc2ccc(C#N)cc2)n1	2
COc1ccc(-c2ncc3ccccn23)cc1	-96
CN1CCc2c(sc(NC(=O)c3ccco3)c2C(N)=O)C1	-15
CCS(=O)(=O)NCc1ccc2[nH]c3c(c2c1)CCCC3	-15
Cc1ccc(S(=O)(=O)/N=C(\NN(C)C)c2ccccc2)cc1	0
O=C(COC(=O)c1ccc2ccccc2n1)c1ccc(Cl)c(Cl)c1	0
CCOC(=O)CCNc1cc(N2CCc3ccccc3CC2)nc(-c2ccccn2)n1	-10
CC12COC3(C(=O)O)CC1CCC32C (configuration not stated)	-10
Cc1cc(C#N)cc(C)c1Oc1nc(Nc2ccc(C#N)cc2)nc(N)c1Br	-3
Nc1nc(NCC2CCC(CNS(=O)(=O)c3cccc4ccccc34)CC2)nc2ccccc12 (configuration not stated)	18
NS(=O)(=O)c1ccc(NC(=O)c2ccc3ncsc3c2)cc1	6
CC1=CC(=O)/C(=C\c2c(O)cc(C)oc2=O)C(=O)O1	-22
N#CC1=C(SCC(=O)Nc2ccc(Cl)cc2)NC(=O)C(C#N)C12CCCCC2 (configuration not stated)	-6
C/C(Nc1ccc(OC(F)(F)F)cc1)=C1/CCOC1=O	-9
CNC(=O)Oc1ccc2c(c1)C1(C)CCN(C)C1N2C (configuration not stated)	4
Cc1cc(=O)oc2cc(OCC(N)=O)ccc12	-13
CCc1sc(N)nc1-c1ccc(Cl)cc1	-20&-11

Remaining list, next part
mol	HCMV UL50-53 inh
O=C(NCC1CCCO1)c1ccc(-n2cnc3cccnc32)cc1 (configuration not stated)	7
Cc1cc(NC(=O)CSc2nccn2-c2ccccc2)no1	-14
COC(=O)c1ccc(NC(=O)CSC2=NCCN2)cc1	8
Cc1cc2nccc(-c3ccccc3)n2n1	-34
COC(=O)CSc1nnc(SCc2ccc(Cl)cc2)s1	10
CCn1c(-c2cccc(C)c2)nc2ccccc21	-7
CC(C)=CCOc1ccc2c(c1)oc(=O)c1ccccc12	3
O=C1C(c2ccccn2)=[N+]([O-])c2ccccc21	-30
COc1ccc(NC(=O)C2Cc3ccccc3C(=O)O2)cc1 (configuration not stated)	-9
COc1cc2c(cc1OC)C(c1ccc(N)cc1)=NNC(=O)C2	-10
CC(O)c1cn(C2CCN(c3ncnc4nc[nH]c34)CC2)nn1 (configuration not stated)	-15&-15
CCCCC/C=C\C=C\CCCCCCCCC(=O)O	-13&-13
Clc1ccc2ncnc(NCc3ccc4c(c3)OCO4)c2c1	-12
O=S1(=O)CCC(N2COc3c(cc(Cl)c4cccnc34)C2)C1 (configuration not stated)	-78
Cc1ccc(C(=O)NCS(=O)(=O)c2ccccc2)cc1	-15
Cn1c(Cc2ccccc2)nc2ccccc21	-7
CCN(CC)CC1CCN(c2ncc3ncnc(Nc4ccc(F)c(Cl)c4)c3n2)CC1	-50
Fc1c(F)c(F)c(Nc2ccccc2)c(F)c1F	-4
CC(=O)Nc1cc(Cl)c(C)cc1N	1
Cc1ccc(N)c(C(O)c2ccccc2)c1 (configuration not stated)	-24

(cont.)
SMILES | HCMV UL50-53 inh
Cc1ccccc1CS(=O)(=O)c1cnc2ccccc2n1 | -36
CCc1cc2c(=O)c(-c3ccc4ccccc4n3)coc2cc1OC | -22
Cc1ccc(NC(=O)C2Cc3ccccc3C(=O)O2)cc1C (configuration not stated) | -8
CC(C)Oc1ccc(C(=O)NC2CCS(=O)(=O)C2)cc1 (configuration not stated) | -2
O=S(=O)(Cc1ccc(C(F)(F)F)cc1)c1c[nH]c2ccccc12 | -11
COc1ccc(C(=O)Nc2c(Cl)cncc2Cl)cc1OC1CCCC1 | -23
COC(=O)C=CC(=O)OC | 8
CCCCC/C=C\C/C=C\C/C=C\C/C=C\CCCC(=O)OCC(O)CO (configuration not stated) | -2&-2
NC(=O)c1ccsc1NC(=O)c1ccc2ncsc2c1 | -5
COc1ccc(CN2CCN(c3nccc(-c4cn(C)nc4C)n3)CC2=O)cc1 | -9&-9
N#Cc1nc(-c2ccccc2F)oc1NC1CCCCC1 | 0
COc1ccc(C(=O)Oc2c(C)occc2=O)cc1OC | -9
Cc1cc(Nc2ccc(NC(=O)c3ccc(Nc4ccnc5ccccc45)cc3)cc2)nc(N)n1 | 19
CC(C)CC(=O)NCc1ccc2[nH]c3c(c2c1)CCCC3 | 0
COc1ccc(S(=O)(=O)Nc2ccccc2CN(C)C/C=C/c2ccc(Cl)cc2)cc1 | -32
CC(=O)OCC(=O)[C@]12N=C(C)O[C@@H]1C[C@H]1[C@@H]3CCC4=CC(=O)C=C[C@]4(C)[C@@H]3C(O)C[C@@]12C (some centres not stated) | 15
N#Cc1ccsc1NC(=O)c1coc2ccccc2c1=O | -5
Nc1ccn(C2CCC(CO)O2)c(=O)n1 (configuration not stated) | 1&-52
O=C(Cc1csc(Nc2ccc(Cl)cc2)n1)NCc1ccccc1 | 2
O=C(Nc1cccc(-c2cscn2)c1)c1ccc2nccnc2c1 | -62
CN(C(Cc1ccc(OS(=O)(=O)c2cccc3cnccc23)cc1)C(=O)N1CCN(c2ccccc2)CC1)S(=O)(=O)c1cccc2cnccc12 (configuration not stated) | -3&-9
CC(C)(C)C(=O)Cc1nc(O)cs1 | -3
Cc1cc(C=Cc2ccc3cc(N(C)C)ccc3[n+]2C)c(C)n1-c1ccccc1 | -98
CC(C)(C)c1cc(C(=O)CSc2nnnn2-c2ccccc2)cc(C(C)(C)C)c1O | -20
Cc1cccc(NC(=O)CS(=O)(=O)c2c[nH]c3ccccc23)c1C | -19

(further entries)
SMILES | HCMV UL50-53 inh
CCCCCCCC(=O)CC[C@@H]1[C@@H](C/C=C\CCCC(=O)OC(C)C)[C@@H](O)C[C@H]1O | -14&-14
COc1ccc(C(O)c2nccn2C)cc1OC (configuration not stated) | -5
COC(=O)C1=C(C)NC(C)=C(C(=O)OCCCN2CCC(c3ccccc3)(c3ccccc3)CC2)[C@H]1c1cccc([N+](=O)[O-])c1 | -4
CC(C)CC(NC(=O)C(COC(C)(C)C)NC(=O)C(Cc1ccc(O)cc1)NC(=O)C(CO)NC(=O)C(Cc1c[nH]c2ccccc12)NC(=O)C(Cc1cnc[nH]1)NC(=O)C1CCC(=O)N1)C(=O)NC(CCCN=C(N)N)C(=O)N1CCCC1C(=O)NNC(N)=O (configuration not stated) | -46
CC12CCC(C1)C(C)(C)C2OCC(O)CN1CCN(c2ccccc2F)CC1 (configuration not stated) | -5
Cc1ccc(NC(=O)CCCN2C(=O)/C(=C\c3ccc4c(c3)OCO4)SC2=S)cc1C | -6
O=C(COc1ccccc1)Nc1nc(-c2ccc(Cl)cc2)cs1 | 0
c1nc(N2CCCCC2)c2c3c(sc2n1)CCC3 | 1
O=C(OC1C(Oc2ccccc2COC(=O)C2(O)C=CCCC2=O)OC(CO)C(O)C1O)c1ccccc1 (configuration not stated) | -41
CCOc1ccc2ccccc2c1C(=O)NC1C(=O)N2C(C(=O)O)C(C)(C)S[C@H]12 (some centres not stated) | -26
CCOc1ccc(S(=O)(=O)NCc2cccnc2)c2ccccc12 | -12
O/N=C/c1ccc(-c2ccc(O)c(F)c2)c(Cl)c1O | -1
CC(C)(C)c1cc(C=C(C#N)C(N)=S)cc(C(C)(C)C)c1O | -14
CC\C=C/C=C/C=C/C=C\CCCCCCCC(=O)O | -29&-29
O=C(c1ccc(Cl)c(Cl)c1)n1ccc(C2CC2)n1 | 5
CCC1SC(CC)C(=O)N(CC(=O)NCc2ccccc2)C1=O (configuration not stated) | -1
CCOC(=O)c1ccc(NC2CCCCC2)c(N)c1 | -16
CCn1cc(-c2cc(C(=O)N3CCCCCC3)c3ccc(C)c(C)c3n2)cn1 | -8
Clc1ccc(-c2csc3ncnc(Cl)c23)cc1 | 3
COc1ccccc1OCCC(=O)O | 9&-10
NC(CCO)c1cccc(C(F)(F)F)c1 (configuration not stated) | 6
COc1ccccc1-c1noc(Cn2ncc3ccccc32)n1 | -5
Cc1cccnc1CC(C)N(C)C(=O)c1cc(-c2cncnc2)nc2c(C)cccc12 (configuration not stated) | -14
CCc1cccc(CC)c1N(COC)C(=O)CSc1nc2ccccc2[nH]1 | -17
C=C(C)Cn1c(C(C)NC(=O)COC)nc2ccccc21 (configuration not stated) | -10

The closing 3 records of the part before come first, to join the parts:
SMILES | HCMV UL50-53 inh
Cc1cccnc1CC(C)N(C)C(=O)c1cc(-c2cncnc2)nc2c(C)cccc12 (configuration not stated) | -14
CCc1cccc(CC)c1N(COC)C(=O)CSc1nc2ccccc2[nH]1 | -17
C=C(C)Cn1c(C(C)NC(=O)COC)nc2ccccc21 (configuration not stated) | -10
O=C(c1ccc(S(=O)(=O)N2CCc3ccccc3C2)cc1)N1CCOCC1 | 0
OCC1CC2CCCC[N+]2(Cc2ccccc2)O1 (configuration not stated) | -11
CC1c2ccccc2CN1CC1=NCCN1 (configuration not stated) | -10
Clc1ccc(-c2cc3ccccn3c2)cc1 | -28
COc1ccc(C(=O)NC(C)C(c2cccs2)N2CCN(C)CC2)cc1OC (configuration not stated) | -5
Cc1sc2nc[nH]c(=O)c2c1-c1ccccc1 | 4

This is a subset; the hit share may differ from the screen's.
